# CapD inh – blocks the Bacillus anthracis CapD enzyme | purified CapD enzyme, fluorescence intensity read-out; stronger effect = lower value; some hits fall short of the stated cut | z-score (no concentration beside the values) | hit rate 0.23% among 140,000 | AID 492967;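 active means z-score under -4 in either of two replicates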;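 further: stock transfer was 100 nL into about 40 µL; score is relative to mean and spread of the plate; one replicate is shown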
# AID504770 – E. coli YBA685 growth inhibition, screen for V. cholerae RctB inhibitors; z-score (test concentration not listed); hit rate 0.27% among 130,000; E. coli YBA685 rctB-dependent plasmid, OD600 growth, 3 h; stronger effect = lower value; AID 504770;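 active means z-score under -2 on both plates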;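 further: wells of about 30 µL received 100 nL stock; score is relative to mean and SD of the test wells; the first replicate is given; strong numbers were not always called active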
# An asterisk follows results filed as active; nt = not tested or not shown; & = joins results of further samples.
SMILES,CapD inh,AID504770
COc1ccccc1NC(=O)Cc1nc(CN2CC(C)OC(C)C2)cs1 (stereo not given),nt,-0.75
COC(=O)c1ccc(CSc2n[nH]c(-c3ccccc3)n2)o1,-0.2,-0.15
CCCCNC(=O)c1cc(Cc2c(C)n[nH]c2C)c(N2CCOCC2)s1,3.7,1.1
Cc1ccc(-c2nc(C(=O)Nc3ccc(Cl)cc3)c3n2CCCCC3)cc1,1.6,0.3
CCNc1c2c3c(cccc3n(C)c1=O)C(=O)c1ccccc1-2,0.54,0.7
CC1(C)CCc2cc(C3SCCS3)ccc2O1,0.43,-0.5
O=C(O)CNc1ccc(Cl)cc1C(=O)c1ccccc1,-0.7,0.4
FC(F)(F)c1ccc(N2CCCC2)nc1,7.5,-0.95
O=[P+](O)c1ccc(Cl)cc1,nt,-0.05
O=S(=O)(Cc1ccco1)Cc1nc(-c2ccc(-c3ccccc3)cc2)cs1,1.1,0.8
Cc1cccc(C)c1NC(=S)N1CC(C)OC(C)C1 (stereo not given),-0.51,-0.45
N#Cc1ccc(CN(c2ccncc2)S(=O)(=O)c2ccccc2)cc1,nt,-1.1
CCCCn1c(SCC(=O)C(C#N)c2nc(C)cs2)nc2cc(S(N)(=O)=O)ccc21 (stereo not given),nt,-0.8
CC(C)c1ccc2c(c1)c1c3n2CCN(CCC#N)C3CCC1 (stereo not given),-0.4,nt
COc1ccccc1CC(C)N (stereo not given),nt,-0.15
CCCCNc1nc2ccccc2n1CC(=O)Nc1ccc(S(=O)(=O)N2CCCC2)cc1,nt,-0.55
COc1ccc2nc(NC(=O)CN(C)S(=O)(=O)c3cccs3)sc2c1,0.48,-0.15
O=C(CSc1nc2ccsc2c(=O)n1NC(=O)COc1ccccc1Br)NCc1ccco1,0.41,0.3
CCOC(=O)c1sc2nc(SCC(=O)NCc3ccco3)n(Cc3cccc(Br)c3)c(=O)c2c1C,3.4,nt
COC(=O)c1ccc(C2Oc3ccc(Cl)cc3C3CC(c4ccc(F)cc4)=NN32)cc1 (stereo not given),-0.36,nt
O=C(Nc1cccc([N+](=O)[O-])c1)c1cc(S(=O)(=O)Nc2ccc(Br)cc2)ccc1Cl,-0.43,nt
CN(C(=O)CCCOc1ccc(Cl)cc1Cl)C1CCCCC1,-0.045,-0.9
Cc1cc(C(C)(C)C)ccc1OCCN(C)C,-0.57,-0.6
COc1cc(C=C2C(=O)NC(=O)NC2=O)ccc1OC(=O)c1cc(F)c(F)cc1Cl,-0.065,nt
O=C(CN1CCN(S(=O)(=O)c2ccc(Cl)cc2)CC1)N1CCCC1,0.1,nt
O=C1CC(n2nc(-c3ccccc3)n(-c3ccccc3)c2=S)C2COC1O2 (stereo not given),-0.28,nt
O=C(OCc1ccccc1Br)N1CCc2c([nH]c3ccccc23)C1,-0.005,nt
Cc1cccc2c1N(C(=O)c1cc(C(F)(F)F)cc(C(F)(F)F)c1)CCC2,-0.58,nt
Cc1ccc(NC(=O)COc2cccc3c2CCNC3=O)cc1Cl,nt,-0.5
CCOC(=O)c1oc2ccccc2c1COC(=O)c1c(C)nn(-c2ccc(F)cc2)c1Cl,nt,0.8
CCOC(=O)c1ccc(NC(=O)CS(=O)(=O)c2cn(CC)c3ccccc23)cc1,nt,-1.2
Cc1ccc(SCCC(=O)N(C)C)cc1,-0.49,2.2
COc1cccc(C2C3=C(CC(C)(C)CC3=O)OC3=C2C(=O)CC(C)(C)C3)c1OCc1ccc(Cl)cc1Cl,-0.23,nt
Cc1cccc(CCOC(=O)NNC(=O)c2cccn2C)c1,0.12,nt
CCOc1ccc2c(c1)-c1c(ssc1=S)C(C)(C)N2C,-1.6,-0.55
O=C(NCCc1ccc(Cl)cc1)c1nc(-c2cccnc2)no1,0.12,0.25
N#Cc1ccc(N2C(=O)c3ccccc3C2=O)cc1,0.59,-0.6
C=CCn1c(Sc2ncnc3sc(C)c(C)c23)nnc1C1CCCCC1,nt,1.4
COc1ccc2c(=O)c(Oc3cc(C)ccc3C)coc2c1,-0.45,-0.1
O=c1[nH][nH]c(-c2ccccc2)c1C=Nc1ccc(Oc2ccccc2)cc1,0.055,nt
O=C1N=C(O)CN1/N=C/c1ccc(-c2ccc([N+](=O)[O-])cc2)o1,-0.55&-0.26,nt
N#Cc1c(SCc2ccccc2)sc(C(=O)c2ccccc2)c1N,0.095,nt
COCCNc1nc2ccccc2c2nc(-c3cccnc3)nn12,0.15,3.2
COC(=O)C1=C(C)N(C(C)c2ccccc2)C(=O)/C1=C\c1ccco1 (stereo not given),7.7,-1.4
CCOC(=O)C1=NN(c2ccc(C)cc2)C2c3cccc4cccc(c34)C12 (stereo not given),0.01,-1.4
Cc1ccc(C(=O)ONC(=Nc2ccccc2C)c2nonc2N)cc1,5.6,nt
COc1ccc(S(=O)(=O)NCc2ccccc2C(F)(F)F)cc1OC,0.38,nt
Cc1csc2sc(-c3ccnc(SCC(=O)c4ccccc4)n3)c(C)c12,0.84,-0.2
Cn1nc(Cl)c(Cl)c1Oc1ccccc1,0.32,-0.05
Cc1ccc(/C=c2\s/c(=C(/C#N)C(=O)N3CCCC3)n(Cc3ccco3)c2=O)s1,nt,-0.7
O=C(O)c1sccc1Cl,-0.12,nt
CC1(C)CC(=O)C2=C(C1)c1c(ccc3ccccc13)NC2c1cc(Br)ccc1O (stereo not given),-0.055,nt
CCOC(=O)CSc1nnc(CNc2ccc(C)cc2C)n1-c1ccccc1,nt,0.1
CCOc1ccc(NC(=O)CSc2nc(NCC3CCCO3)c3ccccc3n2)cc1 (stereo not given),0.6,nt
Cc1cc(C)n2nc(S(=O)(=O)NC3CCCCC3)nc2n1,-0.2,-0.2
O=C(CSc1n[nH]c(=O)n1-c1cccnc1)c1ccc(N2CCOCC2)cc1,-0.35,0.25
O=C1CSC(c2cn(-c3ccccc3)nc2-c2cc3ccccc3oc2=O)N1Cc1ccco1 (stereo not given),33,nt
Cc1ccc(N(Cc2ccccc2F)S(C)(=O)=O)c(C)c1,0.14,1.9
Cc1cccc(CCOC(=O)NCCN2CCOCC2)c1,-0.21,nt
O=C(CSc1nc2ccccc2o1)c1cc2ccccc2o1,nt,0.7
# Additional records
SMILES,CapD inh,AID504770
N=c1sc(/C=C2\C=c3ccccc3=NC2=O)c(O)n1-c1ccc2c(c1)OCO2,0.08,nt
O=C(COC(=O)c1ccc(Br)o1)Nc1c(Cl)cccc1Cl,0.91,-0.5
CN(C(=O)c1cc2c(Cl)nc3ccccc3c2s1)C1CCCCC1,-0.27,0.55
O=C(N=C=S)c1ccc(Cl)cc1,nt,-0.9
Cc1coc2cc3oc(=O)c(CCC(=O)N4CCCC4)c(C)c3cc12,13,-0.2
CC(C)(C)C1COC(CC2=NC(C(C)(C)C)CO2)=N1 (stereo not given),0.41,0
COC(=O)c1ccccc1NC(=O)Nc1ncn(Cc2cccc(C(F)(F)F)c2)n1,8.3,-0.4
CCCn1c(CCC(=O)NCc2ccc(Cl)cc2)nc2cccnc21,1.1,-0.9
CCCCN1C(=O)C2ON(c3ccccc3)C(c3cccs3)C2C1=O (stereo not given),0.27,0.65
O=C1c2ccccc2C(=O)N1CNc1ccc(Oc2ccc(Cl)cc2)cc1,-0.29,nt
CN(C)CCCC1(O)c2ccccc2CCc2ccccc21,nt,-0.3
CC(C)(C)c1ccc(NC(=O)c2ccco2)c(NC(=O)C(Cl)Cl)c1,-0.28,nt
COc1ccc(C2/C(=C(\O)c3ccc(C)cc3)C(=O)C(=O)N2c2nncs2)cc1OC (stereo not given),-0.56,nt
COc1cccc2c1NC(c1ccccc1[N+](=O)[O-])C1CC=CC21 (stereo not given),-0.21,nt
CC(Oc1ccc(C(C)(C)C)cc1)c1ccnc2nc(/N=C/N(C)C)nn12 (stereo not given),41,nt
COc1ccc2c(=S)c(-c3ccccn3)c(C)oc2c1,-0.35,nt
O=C(CC(SCc1ccco1)c1ccc(Cl)cc1)c1ccco1 (stereo not given),-0.54,nt
CCCC(C)C(=O)Nc1nnc(C(F)(F)F)s1 (stereo not given),nt,2
NS(=O)(=O)c1ccc(CNC(=O)c2ccccn2)cc1,nt,1.5
CC(C)c1ccc(NC(=O)CSc2ncccc2C(=O)NCc2ccc(Cl)c(Cl)c2)cc1,-0.78,nt

# Some of the entries so far, with values under each structure.
# Results follow in this order: CapD inh, AID504770
O=C(COC(=O)c1ccc(Br)o1)Nc1c(Cl)cccc1Cl
→ 0.91, -0.5
CN(C(=O)c1cc2c(Cl)nc3ccccc3c2s1)C1CCCCC1
→ -0.27, 0.55
O=C(N=C=S)c1ccc(Cl)cc1
→ nt, -0.9
Cc1coc2cc3oc(=O)c(CCC(=O)N4CCCC4)c(C)c3cc12
→ 13, -0.2
CC(C)(C)C1COC(CC2=NC(C(C)(C)C)CO2)=N1 (stereo not given)
→ 0.41, 0

# The main list resumes with the seven entries that preceded the break.
SMILES,CapD inh,AID504770
COc1cccc2c1NC(c1ccccc1[N+](=O)[O-])C1CC=CC21 (stereo not given),-0.21,nt
CC(Oc1ccc(C(C)(C)C)cc1)c1ccnc2nc(/N=C/N(C)C)nn12 (stereo not given),41,nt
COc1ccc2c(=S)c(-c3ccccn3)c(C)oc2c1,-0.35,nt
O=C(CC(SCc1ccco1)c1ccc(Cl)cc1)c1ccco1 (stereo not given),-0.54,nt
CCCC(C)C(=O)Nc1nnc(C(F)(F)F)s1 (stereo not given),nt,2
NS(=O)(=O)c1ccc(CNC(=O)c2ccccn2)cc1,nt,1.5
CC(C)c1ccc(NC(=O)CSc2ncccc2C(=O)NCc2ccc(Cl)c(Cl)c2)cc1,-0.78,nt
CCN(CC)C(=O)CSc1cc(=O)n(CC)c2ccccc12,-1.3,1.9
CCOC(=O)NC(c1cccc(Cl)c1)C1COc2ccccc2C1=O (stereo not given),-0.56,nt
CCOc1ccc2nc(SCC(=O)Nc3ccc(NC(C)=O)cc3)sc2c1,-0.34,nt
COC(=O)c1ccc(-c2nc(-c3ccc(Cl)cc3Cl)cs2)cc1,0.79,nt
CN(C)S(=O)(=O)c1cccc(-c2nnc3n2N=C(c2ccccc2)C(CC(=O)O)S3)c1 (stereo not given),nt,-0.6
COc1ccc(Nc2cc(C)nc3ccc(OC)cc23)cc1,-0.67,0.1
COc1cc(OC)c2c(-c3ccccc3)cc(=O)oc2c1,0.95,0.35
COc1ccc(OC)c(C2CC(c3ccc(OC)c(OC)c3)=NN2S(=O)(=O)c2ccccc2)c1 (stereo not given),-0.43,nt
O=C1c2cc(S(=O)(=O)N3CCCCC3)cc([N+](=O)[O-])c2-c2c1cc(S(=O)(=O)N1CCCCC1)cc2[N+](=O)[O-],0.74,nt
Cc1sc2nc(CN3CCOCC3)nc(NC(C)C)c2c1C,nt,-0.05
COc1cc(C(=O)NNC(=S)Nc2cccc(C(F)(F)F)c2)cc(OC)c1OC,-0.12,nt
COC(=O)CSc1nc(C)cc(N2CCOCC2)n1,nt,-0.8
O=S(=O)(Nc1cccc2ccccc12)c1ccccc1,0.96,-0.75
CC1=C(C(=O)OCCOc2ccccc2)C(c2cccc([N+](=O)[O-])c2)NC(=O)N1C (stereo not given),-0.1,nt
CCCCn1c(N)c(N(C)C(=O)c2ccc(NC(=O)CSc3nnnn3C)cc2)c(=O)[nH]c1=O,nt,0.3
CCOc1nc(NC(C)C)nc(NC(C)C)n1,nt,-0.3
Cc1oc2c(cc(O)c3ccccc32)c1C(=O)O,9.2,-0.5
CC1(C)CC(=O)C2=C(C1)OC1=C(C(=O)CC(C)(C)C1)C2c1ccc(OCc2ccccc2F)cc1,-0.38,nt
CC(C)Cn1c(O)c(NC(=O)N=N)c2ccccc21,nt,1.1
O=C(CSc1nn2c(SCC(=O)Nc3nccs3)nnc2s1)Nc1nccs1,-0.75,nt
CCOC(=O)C1=NN(c2cccc(Cl)c2)C2C(=O)N(c3ccccc3)C(=O)C12 (stereo not given),36,nt
COC(OC)C12c3ccccc3C(c3ccccc31)C1C(=O)N(c3ccc(C)cc3)C(=O)C12 (stereo not given),-0.3,nt
CCOC(=O)c1[nH]c(C)c(CCC(=O)O)c1C,0.26,0.25
Cc1cc(Cl)c(CC(=O)O)c(Cl)n1,nt,-0.5
CCN1CCN(CC(O)COc2ccc(-c3ccccc3)cc2)CC1 (stereo not given),-0.55,0.15
CC(C)(C)CC(=O)Nc1nc2ccc(S(C)(=O)=O)cc2s1,0.25,0.75
CCCCc1ccc(-n2sc3c(c2=S)-c2cccc(C)c2NC3(C)C)cc1,-0.26,nt
C[C@H](c1ccccc1)N1C[C@@H](CO)OC1=O,0,-0.5
CC1COc2c(N3CCN(C)CC3)c(F)cc3c(=O)c(C(=O)N4CCN(S(=O)(=O)c5ccccc5)CC4)cn1c23 (stereo not given),nt,-0.35
COc1ccc(C(=O)NNC(=O)c2ccncc2)cc1,-0.48,nt
O=C(O)CCC(=O)Nc1cccc(C(=O)Nc2cccc(Cl)c2)c1,-0.035,-0.55
O=C(c1ccc2c(c1)OCO2)N1CCN(CCN2C(=O)c3cccc4cccc(c34)C2=O)CC1,0.69,nt
CC1=C(C(=O)OC(C)(C)C)C2(C(=O)Nc3ccc(Br)cc32)C(C(=O)OC(C)(C)C)=C(N)O1 (stereo not given),-0.18,nt
Cc1cc(OC(=O)C2CC(=O)N(c3ccc(F)cc3)C2)ccc1N1C(=O)CCC1=O (stereo not given),-0.55,-0.95
Cn1ccnc1S(=O)(=O)/C(C#N)=C/c1ccccc1Cl,0.21,0.3
O=C(Nc1ccccc1-c1nc2ccccc2[nH]1)c1ccc(Oc2ccccc2)cc1,13,nt
CC(C)N(C(=O)C[n+]1ccsc1N)c1ccccc1,0.09,-0.55
COc1ccc(/C=C2/c3ccccc3-c3nc4ccccc4cc32)cc1OC,-0.45,nt
Nc1cc(C(F)(F)F)ccc1-n1ccnc1,nt,0.4
COC(=O)C1=C(C)OC(N)=C(C#N)C1c1ccc(Cl)c(Cl)c1 (stereo not given),0.03,nt

# High-throughput results deposited in PubChem BioAssay by ICCB-Longwood Screening Facility, Harvard Medical School.

# Not a hit list, and some 0.41% of all compounds hit somewhere here.
